# VACV mCherry inh: qHTS for Stage-Specific Inhibitors of Vaccinia Orthopoxvirus: mCherry Reporter Primary qHTS | 0.63% of 310,000 active | Potency, µM (highest dose often 36.5 µM), for inactives: at the top dose activity change, negative = inhibition, most hits filed as inhibitors | Vaccinia virus mCherry reporter infection, fluorescence; about a quarter of the inactives have no number; active = well fitted inhibition curve with a large enough effect; inconclusive = small, poorly fitted or top-dose-only effect; inactive = no such curve, though single readings can be large or run the other way; tested in A549 cells; also: nearly all actives have a fitted effect of over 35% in size; inactives centre near -10
# VACV Venus inh: qHTS for Stage-Specific Inhibitors of Vaccinia Orthopoxvirus: Venus Reporter Primary qHTS | Potency, µM (series often up to 36.5 µM), for the others: at the top dose activity change, negative = inhibition, most hits filed as inhibitors | Vaccinia virus Venus reporter expression, fluorescence | 0.46% of 330,000 active; active means well fitted inhibition curve with a large enough effect; inconclusive means small, poorly fitted or top-dose-only effect; inactive means no such curve, though single readings can be large or run the other way; tested in A549 cells; also: nearly all actives have a fitted effect of over 30% in size; inactives centre near -10
# The depositor's hits bear a star; i = inactive; u = inconclusive; x = not tested or not shown; & = joins results of further samples; [ ] = dose if it differs, or a comment. % is scaled to controls: 0 for no effect and ±100 for the full control effect; potency is read from the fitted curve at half-maximal effect.
Compound	VACV mCherry inh	VACV Venus inh
O=S1(=O)CCN(C(CCO)c2cccc(C(F)(F)F)c2)CC1 (configuration not stated)	-9%	1%
CC(=O)Nc1ccc(NC(=O)c2ccc(-c3ccccc3Cl)o2)cc1	i	-4%
O=C(Nc1ccc(NC(=O)c2ccccc2Cl)cc1)c1cccnc1	0%	-1%
C[C@@H]1ON(C2CCCCC2)[C@H]2c3nc4ccccc4n3C[C@@H]12	i	-5%
Cc1ccc(C(=O)C(C)Oc2cccc(NC(=O)c3ccco3)c2)cc1 (configuration not stated)	x	3%
CCC1(CC)Cc2ccccc2-c2nc(CN(C)C)[nH]c(=O)c21	-7%	-23%
O=C(CS(=O)(=O)c1ccccc1)N1CCCCC1	i	-14%
CC1CCC(NS(=O)(=O)c2cccc3nsnc23)CC1 (configuration not stated)	26%	4%
c1cc(CNCCCN2CCOCC2)ccn1	-4%	7%
C/C(=N\Nc1ccccn1)c1ccc2c(c1)OCO2	-2%	-5%
CC1CCCN(CC(=O)Nc2cc(Cl)ccc2Oc2ccccc2)C1 (configuration not stated)	-25%	14%
COc1cccc(NC(=O)Nc2nnc(Cc3ccc(F)cc3)s2)c1	-11%	-7%
COc1ccccc1NS(=O)(=O)c1ccc(O)c(C(=O)OCC(=O)c2ccc(Cl)cc2Cl)c1	-6%	6%
COC(=O)/C=c1\sc2ncnn2c1=O	-1%[1.46 µM]	-18%
CCOC(=O)c1ccc(NC(=O)Cn2cnc(S(=O)(=O)N3CCCC3)c2)cc1	-4%	-7%&-8%
CCN(C(=O)c1ccc(C(C)(C)C)cc1)c1nnc(Cn2nnc3ccccc32)s1	u	u
CN(C)c1cccc2c(S(=O)(=O)NC(=O)[C@H]3O[C@@H](n4cnc5c(N)ncnc54)[C@H](O)[C@@H]3O)cccc12	25%	1%
O=c1nc2ccccc2c2n1CC(CN1CCN(c3ccccc3F)CC1)N2 (configuration not stated)	x	-16%
COc1ccc(S(=O)(=O)N2CCC(n3cnc4ccccc43)CC2)cc1	13%	3%
O=C(O)c1ccc(/C=C2\SC(=Nc3ccccc3)N(c3ccccc3)C2=O)cc1	u	u
COc1cccc(CNS(=O)(=O)c2ccc3c(c2)N(C)CCO3)c1	u	-13%
COc1ccccc1NC(=O)CCN1CCCCCC1	i	-5%
Cc1ccc(NC(=O)C(C)N2CCCc3ccccc32)cc1S(=O)(=O)N1CCOCC1 (configuration not stated)	-16%	-16%
Cc1ccc(CS(=O)Cc2ccc(C(=O)NCc3ccccc3Cl)o2)cc1 (configuration not stated)	-13%	-8%
CCOc1cc(/C=N/Nc2nncc(-c3ccccc3)n2)ccc1O	-22%	-5%
Cc1csc(NC(=O)CSc2nnc(-c3ccccc3)o2)n1	-3%	-13%
CCCN(Cc1cccs1)C(=O)Nc1cc(C)cc(C)c1	0%	-14%
Cc1ccc(NC(=O)CN2CCN(Cc3ccccc3)CC2)cc1F	u	5%
Cc1nc(-c2cccc(Br)c2)ccc1C(=O)O	-3%	4%
O=C(NC1CCCCC1)c1ccc(Cn2cc(Cl)cn2)cc1	-11%	-10%

# Quoted from the listing:
# COc1cccc(NC(=O)Nc2nnc(Cc3ccc(F)cc3)s2)c1 in VACV Venus inh: -7%
# Cc1ccc(CS(=O)Cc2ccc(C(=O)NCc3ccccc3Cl)o2)cc1 (configuration not stated) in VACV mCherry inh: -13%
# O=S1(=O)CCN(C(CCO)c2cccc(C(F)(F)F)c2)CC1 (configuration not stated) in VACV Venus inh: 1%

# (next part)
Compound	VACV mCherry inh	VACV Venus inh
Cc1ccc(OCc2nnc(SCC(=O)O)n2-c2ccccc2)cc1	i	-8%
Cc1cc(C)c(C)c(OCCCCN2CCCCC2)c1	-24%	2%
CCCNC(=O)C1CC(=O)N(c2ccc(OCc3ccccc3)cc2)C1 (configuration not stated)	i	-12%
Cc1ccc2nc(NCc3ccccc3)c3nncn3c2c1	i	-4%
COc1ccccc1N1CCN(C(=O)C2CCN(S(=O)(=O)c3cnc[nH]3)CC2)CC1	-4%	0%
CCCCN(C(=O)CC1CCCC1)c1c(N)n(Cc2ccccc2)c(=O)[nH]c1=O	i	-8%
O=C(NCCc1ccccc1)c1ccc(=O)oc1	i	-12%
COc1cc(/C=N/NC(=O)c2ccc(COc3cc(C)ccc3C(C)C)cc2)cc(OC)c1O	-14%	-7%
COc1ccc(C(=O)Cc2cnn(-c3ccccc3)c2)c(O)c1	-17%[1.46 µM]	-24%
COC(=O)c1ccc(N2CCS(=O)(=O)CC2)cc1	-2%	-14%
O=C(CSc1nnnn1-c1cccnc1)Nc1cccc(Cl)c1	i	-3%
COc1ccc(CCC(=O)NCCS(=O)(=O)N2CCN(c3ccc(F)cc3)CC2)cc1	i	0%
COc1cccc2sc(=NC(=O)CS(=O)(=O)c3ccc(Cl)cc3)n(C)c12	-22%	-4%
CC1CC(=O)c2cnc(Nc3cccc(C(F)(F)F)c3)nc2C1 (configuration not stated)	x	2%
COc1ccc(C(=O)NNC2=CC(=O)CC(C)(C)C2)cc1	-11%	-8%
CCOC(=O)c1ccccc1N1C(=O)CSC1=S	-4%	10%
Cc1cc(NC(=O)CSCC(=O)N(c2ccc(F)cc2)C(C(=O)NC2CCCCC2)c2ccc(O)c(O)c2)no1 (configuration not stated)	i	-29%
C[C@]12CC[C@H](O)C[C@H]1CC[C@@H]1[C@@H]2C[C@@H](O)[C@]2(C)[C@@H](C3=CC(=O)OC3)CC[C@]12O	1.1µM*	1.1µM*
COc1ccc(CN(C)CCCn2ccc(N)nc2=O)cc1OC	-24%	-11%
CC(=O)Nc1ccc(/C(C)=N/NC(=O)c2ccc(F)cc2)cc1	-14%	-11%
Fc1cc2nc(-c3ccncc3)[nH]c2cc1F	0%	-10%
O=C(Nc1cccc(Cl)c1)Nc1nnc(-c2ccncc2)s1	-28%	u
CCCc1nn2c(=O)cc(COC(=O)c3ccccc3NC(=O)COc3ccccc3F)nc2s1	-17%	-19%
O=C(NNC(=O)c1cc2ccccc2cc1O)Nc1ccc(Br)cc1	-16%	-13%
O=c1ccnc(SCCC(F)=C(F)F)[nH]1	-1%	-12%
Cc1ccc(C(=O)Oc2coc(CSc3nnc(NC(=O)C4CC4)s3)cc2=O)cc1C	-26%	-12%
Cc1[nH][nH]c(=O)c1C(c1c(C)[nH][nH]c1=O)c1cn(Cc2ccc(F)cc2)c2ccccc12	-1%	-16%
COc1ccc(NC(=O)Cn2nnc(-c3ccccc3NS(=O)(=O)c3ccc(OC)cc3)n2)cc1	-4%	-26%
COc1ccc(N(CC(=O)Nc2ccc(C)cc2C)S(=O)(=O)c2ccccc2[N+](=O)[O-])c(OC)c1	-21%	-23%
COc1ccc(CNC(=O)C/C(C)=N/NC(=O)Cc2ccc(OC)cc2)cc1	-3%	-3%

# 2 compounds picked at random from the list so far:
Compound	VACV mCherry inh	VACV Venus inh
Cc1ccc(OCc2nnc(SCC(=O)O)n2-c2ccccc2)cc1	i	-8%
Cc1cc(NC(=O)CSCC(=O)N(c2ccc(F)cc2)C(C(=O)NC2CCCCC2)c2ccc(O)c(O)c2)no1 (configuration not stated)	i	-29%

# (cont.)
Compound	VACV mCherry inh	VACV Venus inh
O=C(NCc1ccccc1)c1ccc(NC(=O)C2CCCCC2)cc1	-20%	-16%
CC(=O)Nc1ccc(OC(=O)c2ccco2)cc1	i	-14%
O=C(COc1ccccc1F)Nc1nc(-c2ccccn2)cs1	u	u
COc1ccc(-c2nc(C)c(CCNS(=O)(=O)c3cc(C)c(C)cc3C)s2)cc1	-20%	-14%
O=[N+]([O-])c1cc(Cl)ccc1NCCNS(=O)(=O)c1ccccc1	i	-20%
Cc1cc2cc(CNC(=O)c3ccco3)ccc2n1C	6%	35%[activator]
Cn1c(CNC(=O)Nc2ccccc2)nnc1SCc1ccccc1	i	-10%
O=C1COc2ccc(-c3cc(-c4ccccc4)c4c(n3)-c3ccccc3OC4)cc2N1	u	-29%
Cc1ccc2[nH]c3c(c2c1)CN(C(=O)CN1CC(C)OC(C)C1)CC3 (configuration not stated)	-15%	7%
Cc1cc2ccccc2c[n+]1C1CCCCC1	-25%	-39%
COc1cc(Cl)c(C)cc1NC(=O)CSc1sc2c(O)cc(=O)[nH]c2c1C#N	-9%	10%
CCN1CCN(S(=O)(=O)c2ccc(Cl)c(C(=O)NC(C)(C)C)c2)CC1	i	-21%
Cc1cccc(Cc2cnc(N3C(=N)SC(C)C3=O)s2)c1 (configuration not stated)	-15%	-10%
O=C(c1ccc(Cn2cc(Br)cn2)cc1)N1CCN(c2ccccc2)CC1	-17%	u
NS(=O)(=O)c1ccc(NS(=O)(=O)c2cccs2)cc1	-18%	-9%
COc1cc2c(cc1OC)C(c1cccs1)N(C(=O)c1cccnc1)CC2 (configuration not stated)	-27%	-29%
O=C(O)CC1S/C(=N\N=C2CCCCCC2)N(c2ccccc2)C1=O (configuration not stated)	-4%	-13%
O=C(NC(=O)N1CCC2(CC1)OCCO2)c1ccc(Cl)cc1	-9%	-4%
CCOc1ccc(NC(=O)c2oc3ccccc3c2NC(=O)c2cc3ccccc3o2)cc1	6%	-2%
COc1ccc(/C=N/n2cnnc2)cc1Br	-11%	-19%
COc1ccc(Cn2c(C(=O)O)c(CNCCc3cccs3)c3ccc(OC)cc32)cc1	-6%	-4%
CCCCOc1ccc(-c2ncc(Cl)cn2)cc1	-15%	5%
Cc1cc(=O)n2nc(N3CCCC(C(=O)NCc4ccccc4Cl)C3)sc2n1 (configuration not stated)	-14%	-9%
CSc1ccc(/C=C(/NC(=O)c2ccc(C)cc2)C(=O)Nc2cccc(F)c2)cc1	-8%	-7%
CCOc1ccc(CN2C(=O)c3ccccc3Sc3ccc(C(=O)NC)cc32)cc1	-1%	-7%
O=C(NCCc1ccccc1)c1ccc(S(=O)(=O)N2CCCC2)cc1	-16%	-30%
Cc1nn(CC(=O)N2CCN(C(=O)c3ccco3)CC2)c(C)c1[N+](=O)[O-]	i	-8%
CC(C)(C)C(c1nc2ccccc2[nH]1)n1c(-c2cc(Cl)cc(Cl)c2)nc2ccccc21 (configuration not stated)	-14%	-7%
O=c1cc(-c2ccccc2)nc(SCc2ccc(Cl)cc2)[nH]1	x	2%
CC(C)S(=O)(=O)c1nsc2nc(=O)c(/C=C3\C=Nc4ccccc43)c(N)n12	i	2%
Cc1cc(S(=O)(=O)NCc2ccccc2)ccc1OCC(=O)N1CCOCC1	i	-1%

# Record cards (already shown). Values in the order: VACV mCherry inh, VACV Venus inh
# COc1ccc(/C=N/n2cnnc2)cc1Br as listed: -11%, -19%
# O=[N+]([O-])c1cc(Cl)ccc1NCCNS(=O)(=O)c1ccccc1 as listed: i, -20%
# CCN1CCN(S(=O)(=O)c2ccc(Cl)c(C(=O)NC(C)(C)C)c2)CC1 as listed: i, -21%
# O=C1COc2ccc(-c3cc(-c4ccccc4)c4c(n3)-c3ccccc3OC4)cc2N1 as listed: u, -29%
# CSc1ccc(/C=C(/NC(=O)c2ccc(C)cc2)C(=O)Nc2cccc(F)c2)cc1 as listed: -8%, -7%
